PKD1 inh – inhibitors of human PKD1 kinase; 200,000 compounds, 0.056% hits; inhibition, %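 (about 10 µM by stock and volumes)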; Q15139; AID 797; PKD1 kinase fluorescence polarization assay;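 active means inhibition of 50% or more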;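 further: controls were vehicle for no effect and a reference inhibitor for full effect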
Insulin prom inh – TRM-6 insulin promoter activity inhibition; TRM-6 cells (human fetal islet line), insulin promoter-eGFP reporter, imaging; reporter expression induced with tamoxifen; inhibition, % at 2 µM; 130,000 compounds, 0.9% hits; AID 1273;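 active means inhibition above the mean plus 3 SD, with well images judged a real hit on visual review, cut at about 60% in these data, passing the limit was not always enough; inconclusive means inhibition over the cutoff but images rejected on review; inactive means inhibition not above the cutoff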
RGS16-Gao HTS – RGS16-Galphao interaction regulator (human). bead-based flow cytometry RGS16-Galphao binding, fluorescence; actives lie on both sides. binding response (% of control), % at 10 µM. 220,000 compounds, 0.38% hits;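 active means below 25% or above 175%, edge rows of some plates excepted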;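 further: Galphao activated by GDP with aluminum fluoride before binding; 100% = wells without compound and 0% = beads without RGS; some results beyond the cut were filed as inactive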
Target sequence (O15492 whole entry, looked up): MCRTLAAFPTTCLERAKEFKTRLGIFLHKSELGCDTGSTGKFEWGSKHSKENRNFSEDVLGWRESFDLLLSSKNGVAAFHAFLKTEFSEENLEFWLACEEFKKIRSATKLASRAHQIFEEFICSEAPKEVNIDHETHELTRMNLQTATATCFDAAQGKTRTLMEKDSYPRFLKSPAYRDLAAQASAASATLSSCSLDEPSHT
Target sequence (P09471 whole entry, looked up): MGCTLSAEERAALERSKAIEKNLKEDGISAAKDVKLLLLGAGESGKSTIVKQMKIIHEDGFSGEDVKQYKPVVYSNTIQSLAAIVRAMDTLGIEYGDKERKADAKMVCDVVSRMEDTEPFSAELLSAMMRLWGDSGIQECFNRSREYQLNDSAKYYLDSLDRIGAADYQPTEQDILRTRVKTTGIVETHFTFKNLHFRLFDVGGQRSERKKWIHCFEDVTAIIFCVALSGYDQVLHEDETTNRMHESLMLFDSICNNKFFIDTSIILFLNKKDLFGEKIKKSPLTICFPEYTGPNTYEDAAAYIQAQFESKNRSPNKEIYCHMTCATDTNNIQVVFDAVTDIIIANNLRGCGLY
GALR2 agonist – GALR2 (human) receptor agonism. activation, %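 (tested at 5 µM)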. AID 803. 140,000 compounds, 0.48% hits. GALR2-expressing cells, agonist activation read-out;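 active means above mean plus 3 SD of all compounds, about 5% in these data, not always enough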;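 further: 0% = vehicle buffer wells and 100% = reference agonist at full effect; tested in CHO reporter cells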
Target sequence (O43603 whole entry, looked up): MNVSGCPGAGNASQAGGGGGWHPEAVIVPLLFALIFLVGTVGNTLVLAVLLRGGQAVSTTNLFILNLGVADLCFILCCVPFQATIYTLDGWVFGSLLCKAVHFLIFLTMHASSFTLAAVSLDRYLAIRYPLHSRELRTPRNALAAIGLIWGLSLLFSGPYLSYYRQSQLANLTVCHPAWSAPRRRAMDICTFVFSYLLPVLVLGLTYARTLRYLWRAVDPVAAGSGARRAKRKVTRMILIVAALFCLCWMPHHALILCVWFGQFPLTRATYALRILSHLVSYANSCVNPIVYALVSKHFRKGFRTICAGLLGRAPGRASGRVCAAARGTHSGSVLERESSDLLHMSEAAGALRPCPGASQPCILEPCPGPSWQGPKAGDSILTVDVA
HSV augment – HSV replication enhancement. maximum fold increase. 220,000 compounds, 0.005% hits. HSV replication augmentation in cells, fold increase;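 active means peak rise of 1.5-fold or more in the series; inconclusive means self-fluorescent or not available for retest; tested in PC3 cells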;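 further: first round at 10 µM; read as green reporter fluorescence; hits show the peak of a series up to 25 µM; 1 = signal of infected wells without compound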
Insulin prom inh cell count – further read-out of Insulin prom inh, marked with its call; normalized cell count, %; measured here: cell count, toxicity; reference of the scale not given here;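 cells exposed to compound for 48 h; stained nuclei by imaging scaled within each plate; lower means fewer cells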
HSV augment primary fold – also measured in HSV augment; calls as there; fold increase; compound at 10 µM; measured here: primary screen fold increase 10 uM; tested in PC3 cells;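 GFP signal in the first replicate; 1 = infected wells without compound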
Active calls of the source: *; i = inactive; u = inconclusive; x = not tested or not shown.

SMILES	PKD1 inh	Insulin prom inh	Insulin prom inh cell count	RGS16-Gao HTS	GALR2 agonist	HSV augment	HSV augment primary fold
COc1ccc(-c2ccc(-c3noc(C(C)C)n3)c(OC)n2)cc1	-5.4	x	x	95.2	0.3	i	0.9
Cc1ccc(S(=O)(=O)/N=C(/Nc2nc(C)cc(C)n2)N2CCOCC2)cc1	-1.6	-25.0	126.1	x	-1.9	i	0.63
Cc1ccc(OCc2nnc(SCC(=O)NC3CCCCC3)n2C)cc1	x	x	x	106.6	x	i	1
COc1ccc(N2CC(C(=O)NCCc3ccc(OC)c(OC)c3)CC2=O)cc1 (configuration not stated)	2.3	25.0	109.8	103.1	-1.4	i	0.97
O=C(CSc1nc(-c2ccccc2)cc(=O)[nH]1)NCc1ccc2c(c1)OCO2	-12.9	x	x	103.3	-1.3	i	0.95
CCCc1nc(NCc2ccco2)c(C#N)c2c1COC(C)(C)C2	2.0	-44.4	98.1	98.6	3.9	i	0.97
Cc1c(Cl)cccc1NC(=O)Cn1nnc(C(=O)NCc2cccs2)c1N	6.6	x	x	98.4	x	i	0.95
CSc1nnnn1-c1ccc(C)c(Cl)c1	-2.6	14.3	91.8	93.6	-1.3	i	0.93

Reprinted at random: 4 compounds from above.
SMILES	PKD1 inh	Insulin prom inh	Insulin prom inh cell count	RGS16-Gao HTS	GALR2 agonist	HSV augment	HSV augment primary fold
COc1ccc(N2CC(C(=O)NCCc3ccc(OC)c(OC)c3)CC2=O)cc1 (configuration not stated)	2.3	25.0	109.8	103.1	-1.4	i	0.97
CSc1nnnn1-c1ccc(C)c(Cl)c1	-2.6	14.3	91.8	93.6	-1.3	i	0.93
CCCc1nc(NCc2ccco2)c(C#N)c2c1COC(C)(C)C2	2.0	-44.4	98.1	98.6	3.9	i	0.97
Cc1ccc(OCc2nnc(SCC(=O)NC3CCCCC3)n2C)cc1	x	x	x	106.6	x	i	1

The results go on:
SMILES	PKD1 inh	Insulin prom inh	Insulin prom inh cell count	RGS16-Gao HTS	GALR2 agonist	HSV augment	HSV augment primary fold
C=CCSc1nc2c(c(=O)[nH]1)C(C(C)C)C(C#N)=C(N)O2 (configuration not stated)	-4.0	x	x	104.7	-0.8	i	0.97
Cc1n[nH]c(=O)nc1N/N=C/c1cccs1	-9.1	x	x	94.1	x	i	1.1
COc1cccc(/C=C/c2nc3c(cnn3-c3ccccc3)c(=O)[nH]2)c1	-8.1	x	x	99.9	x	i	0.8
Cc1cccc(NC(=O)CSc2nc3c(c(=O)[nH]2)CCCC3)c1C	0.3	26.9	64.6	96.1	-1.1	i	0.85
Nc1cc(Cl)ccc1N1CCCCC1	4.6	x	x	103.5	x	i	1
O=c1oc2ccccc2cc1-c1csc(NN=C2CCCCC2)n1	4.8	x	x	102.9	0.7	i	0.85
COc1ccc(C2CC(=O)c3cnn(-c4nc(C)cc(C)n4)c3C2)cc1OC (configuration not stated)	x	x	x	96.3	x	i	0.93
S=C(NCCCN1CCOCC1)Nc1ccc(Cl)c(Cl)c1	-12.3	16.1	109.4	119.6	-1.7	i	0.91
S=C(NCC1CCCCC1)Nc1cccnc1	1.1	x	x	87.5	-1.3	i	1.01
CCC(=O)c1ccc(OCC(O)CNCc2ccc(F)cc2)cc1 (configuration not stated)	-14.5	x	x	109.5	-0.9	i	1
CCCN(CCC)S(=O)(=O)c1ccc(NC(=O)c2cc(C(=O)OC)cc([N+](=O)[O-])c2)cc1	-8.4	0.0	94.0	101.4	-2.0	i	0.85
CCCN1C=CC(=C/C=C(\C#N)C(=O)OCC)C=C1	-14.8	-141.0	130.1	91.1	0.3	u	x
O=C1CSC(c2ccccn2)N1c1ccccc1 (configuration not stated)	-9.8	-36.4	101.1	99.1	-1.3	i	1.04
O=C(CN1CCN(Cc2ccccc2Cl)CC1)N/N=C/c1cccs1	x	x	x	100.4	x	i	0.84
Cc1ccc(C(=O)Nc2nc(-c3ccccc3)c(-c3ccccc3)o2)cc1	-6.5	44.1	105.6	99.4	-1.9	i	0.86
O=C(C1=C(O)C(=O)N(CCc2ccccc2)C1c1cccnc1)c1ccco1 (configuration not stated)	-10.1	61.3	71.0	110.6	-1.2	i	1.12
CCCCN(CC)CCCNC(=O)C1CCN(c2ncnc3c2sc2cccc(F)c23)CC1	6.5	-7.1	112.0	102.2	x	i	0.81
N#Cc1cc(-c2ccc(Cl)cc2)cn(Cc2c(Cl)cccc2Cl)c1=O	7.3	x	x	116.6	-2.0	i	1.14
N#Cc1c(-c2ccccc2)c(-c2ccccc2)n(Cc2ccco2)c1NC(=O)c1cccs1	2.3	x	x	97.3	-2.6	u	x
CC(CCc1ccco1)NC(=O)c1cc2c(-c3ccccc3F)nn(C)c2s1 (configuration not stated)	-1.7	x	x	98.5	-0.8	i	0.86
CN(C)c1oc(-c2ccccc2Cl)nc1P(=O)(c1ccccc1)c1ccccc1	-9.2	-53.6	95.4	112.7	-0.2	i	1.07
CCOC(=O)N1CCN(S(=O)(=O)c2ccc([N+](=O)[O-])cc2)CC1	-4.7	-18.2	61.5	119.8	x	i	0.99
CC1=C(C#N)CCC(=O)N1Cc1c(F)cccc1Cl	-3.8	16.7	72.1	98.0	x	i	1.04
Cc1nnc(SC(C(=O)Nc2ccc(Cl)c([N+](=O)[O-])c2)c2ccccc2)[nH]c1=O (configuration not stated)	-9.0	x	x	105.3	x	i	0.89

A second format for part of the listing above:
Values run as follows: PKD1 inh | Insulin prom inh | Insulin prom inh cell count | RGS16-Gao HTS | GALR2 agonist | HSV augment | HSV augment primary fold
> N#Cc1cc(-c2ccc(Cl)cc2)cn(Cc2c(Cl)cccc2Cl)c1=O
    7.3 | x | x | 116.6 | -2.0 | i | 1.14
> N#Cc1c(-c2ccccc2)c(-c2ccccc2)n(Cc2ccco2)c1NC(=O)c1cccs1
    2.3 | x | x | 97.3 | -2.6 | u | x
> CC(CCc1ccco1)NC(=O)c1cc2c(-c3ccccc3F)nn(C)c2s1 (configuration not stated)
    -1.7 | x | x | 98.5 | -0.8 | i | 0.86

The list continues:
SMILES	PKD1 inh	Insulin prom inh	Insulin prom inh cell count	RGS16-Gao HTS	GALR2 agonist	HSV augment	HSV augment primary fold
COc1ccc(O)c(C(=O)c2cnc3onc(C)c3c2)c1	-6.6	x	x	112.4	-1.5	i	0.88
O=C1C2C3C=CC([C@@H]2C(=O)N1Cc1cccnc1)C31CC1 (some centres not stated)	-0.4	-13.2	90.0	102.0	0.1	i	0.983
CN(C)/C=C1\SC(=S)N(c2ccc(F)cc2)C1=O	x	x	x	96.9	x	i	1.11
CC12CCC(C(=O)NCc3ccccc3Cl)(OC1=O)C2(C)C (configuration not stated)	4.2	x	x	90.1	x	i	0.95
CCOC(=O)c1ccc(N2C(=O)CC(N(Cc3ccc4c(c3)OCO4)C(=O)Nc3ccccc3)C2=O)cc1 (configuration not stated)	4.6	-14.3	102.0	99.8	-0.2	i	0.81
CCN(C(=O)CSc1nnnn1-c1cc(C)ccc1OC)C1CCS(=O)(=O)C1 (configuration not stated)	-8.6	-85.7	121.0	104.5	-1.4	i	0.92
O=C(COc1ccc(Cl)cc1)Nc1ccc(Cc2ccncc2)cc1	1.4	20.0	40.6	102.8	0.3	i	0.93
Cc1cc(C)c(C2C3=C(Nc4c2c(C)nn4-c2ccccn2)c2ccccc2C3=O)c(C)c1 (configuration not stated)	0.1	x	x	110.1	-0.1	i	0.82
Cc1ccccc1OCC(=O)Nc1ccc2c(c1)COC2=O	-6.0	-42.4	159.4	148.5	-2.1	i	0.72
COc1cc(C2C3C(=O)N(c4ccccc4)C(=O)C3ON2c2ccccc2)ccc1O (configuration not stated)	-3.2	11.5	97.0	98.3	-0.1	i	0.88
O=[N+]([O-])c1cccc2c(Cl)ccnc12	-4.6	35.7	147.4	97.5	x	i	0.9
COc1cccc(OC)c1OCc1cc(C2C3CCCC=C3C(C#N)=C(N)C2(C#N)C#N)c(C)cc1C (configuration not stated)	1.6	25.0	75.6	128.1	-0.2	i	1.08
Cn1c(=O)c2c(nc(NCc3cccnc3)n2Cc2cccc(C(F)(F)F)c2)n(C)c1=O	-5.9	40.0	54.5	101.3	-0.9	i	1.08
CCCC(=O)NCc1nc2ccccc2n1C	-2.7	-17.2	129.8	104.2	-2.3	i	0.82
Clc1cccc(Cl)c1CSc1nnc(CN2CCOCC2)n1-c1ccccc1	3.5	-10.8	49.5	100.8	-1.3	i	0.973
Cc1nc(C)c(CCNC(=O)c2ccc(C(F)(F)F)cc2)s1	5.1	-19.4	88.1	97.2	-1.1	i	0.82
O=C(CN1C(=O)C2CCCCC2C1=O)N1CCN(c2ncccn2)CC1 (configuration not stated)	x	x	x	101.3	x	u	x
CC1(C)CC(CC(=O)O)(c2ccc(F)cc2)CCO1 (configuration not stated)	-7.0	x	x	101.9	-1.2	i	1.01
COc1ccc(CNCCSc2nnnn2C)c(OC)c1OC	3.9	-33.3	96.3	107.2	x	i	0.93
CN=C1NN=C(c2cc(C)n(-c3c(C)n(C)n(-c4ccccc4)c3=O)c2C)CS1	-0.4	5.6	122.9	103.7	-0.3	i	1.01
CCOC(=O)c1c(N)sc(C(O)(C(F)(F)F)C(F)(F)F)c1-c1ccccc1	4.7	x	x	106.8	0.7	i	0.82
Cc1cccc(NC(=S)N(CCN(C)C)Cc2cccs2)c1	1.6	-6.7	73.0	102.8	x	i	0.94
CC(C(=O)Nc1ccc2c(c1)OCCO2)N(c1ccccc1)S(C)(=O)=O (configuration not stated)	x	x	x	103.4	x	i	0.98
COc1ccc(N(CC(=O)Nc2nccs2)S(=O)(=O)c2c(C)nn(C)c2C)cc1	-5.8	x	x	98.1	-3.6	i	0.68
Clc1ccc(/C=N/c2c(-c3ccc(Cl)cc3)nc3n2CCS3)cc1	4.0	-7.0	148.0	97.5	-3.1	i	0.75
CCCNCC1COc2ccccc2O1 (configuration not stated)	0.4	17.4	76.9	103.0	-2.2	i	0.95
O=C(c1cc(-c2ccc(Cl)cc2)n(-c2cc(Cl)ccc2Cl)n1)N1CCOCC1	-4.4	43.3	53.6	107.4	-0.7	i	0.99
Brc1cccc(CNc2nc3ccccc3n2CCN2CCCCC2)c1	x	x	x	126.1	x	i	0.86
Cc1nnc(SCCn2c(Br)nc3c2c(=O)n(C)c(=O)n3C)s1	1.8	40.7	120.0	98.2	2.1	i	0.81
CCCNC(=O)CCc1cc(C(C)(C)C)c(O)c(C(C)(C)C)c1	3.3	x	x	96.7	0.6	i	1.04
COCCN1C(=O)C(=O)/C(=C(/O)c2cccc(OC)c2)C1c1ccco1 (configuration not stated)	-9.7	29.2	130.8	95.3	-2.0	i	1
Cc1ccc(C2=NN(CC(=O)NCc3ccco3)C(=O)CC2)cc1	-6.0	-16.7	115.1	101.2	-0.2	i	0.86
CCCc1[nH]nc2c1C(c1ccncc1)C(C#N)=C(N)O2 (configuration not stated)	-5.1	0.0	155.6	100.7	-2.6	i	0.94
CCOc1nc(NCc2ccco2)nc(Nc2ccc(OC)cc2)n1	3.5	33.3	105.8	112.6	-1.2	i	0.953
CCC(C)c1ccccc1NC(=O)C(C)NCCN(C)C (configuration not stated)	x	x	x	97.4	x	i	1.03
Cc1cc(NC(=O)c2c(-c3ccccc3Cl)noc2C)no1	2.5	-23.7	132.9	102.9	-1.1	i	0.95
O=C(NCCc1ccc(Cl)cc1)Nc1ccc(Cl)cc1	x	x	x	92.7	x	i	1.01
O=C(Nc1ccc(N2CCN(C(=O)c3cccs3)CC2)c(Cl)c1)c1cccnc1	-10.2	x	x	72.5	x	i	0.86
COc1ccc(OC)c(NC(=O)C23CC4CC(C2)CC(n2cnc(Br)n2)(C4)C3)c1	4.5	-20.7	90.7	110.7	-1.9	i	1.06
CN(C)c1ccc(C(=O)C(O)c2ccccc2)cc1 (configuration not stated)	-4.0	-2.6	76.6	78.1	1.8	i	0.92
Cc1cc(C)nc(-n2ncc3c2CC(c2ccccc2)CC3=O)n1 (configuration not stated)	3.1	x	x	104.2	1.3	i	0.97
CC(C)(C)C1CCC(=NNS(=O)(=O)c2ccc(Br)cc2)CC1 (configuration not stated)	-10.6	52.4	112.2	98.1	-2.1	i	0.943
CCN(CC)S(=O)(=O)c1cc([N+](=O)[O-])ccc1N=Nc1c(O)[nH]c2ccccc12	-3.1	14.3	86.1	112.9	-1.1	i	0.78
CC(C)NC(=O)COC(=O)c1cc(Br)ccc1Cl	-4.0	3.5	138.7	101.1	-1.4	i	1.02
CCOc1ccc(C(=O)CCC(=O)NC(C)C(=O)OC)cc1 (configuration not stated)	2.1	x	x	99.5	x	i	0.99
COc1ccccc1C(=O)Nn1cnc2ccccc2c1=O	-5.4	-15.4	110.9	100.5	-1.6	i	1.08

High-throughput results from PubChem.
